LASV entry inh: Lassa virus entry inhibition; Lassa virus pseudotype entry inhibition, cell reporter; control for the full effect not named in the record; Potency, µM (top dose mostly 37.9 µM), without a hit: top-dose activity change, negative = inhibition, hits mostly inhibitors; hit rate 1.2% among 300,000; active means well fitted inhibition curve with a large enough effect; inconclusive means small, poorly fitted or top-dose-only effect, or effect the other way; inactive means flat fitted curve, though single readings scatter; tested in HEK293 cells; further: on the % scale 0 is the no-effect control and ±100 the full control effect; nearly all actives have a fitted effect of over 50% in size; luciferase read-out
SARS PLP yeast: SARS-CoV PLP inhibition in yeast | S. cerevisiae expressing SARS-CoV PLpro, growth rescue; control for the full effect not named in the record | Potency, µM (series often up to 32.9 µM), without a hit: at the top dose activity, positive = growth rescue | hit rate 0.19% among 330,000; further: 0% is about no effect; nearly all actives have a fitted effect of over 55% in size; growth read by luminescence after 48 h
Cruzain inh Det: inhibitors of Trypanosoma cruzi cruzain with detergent; purified cruzain, Z-FR-AMC fluorescence, 0.01% Triton; AID 1478; Potency, µM, without a hit: max response, negative = inhibition, hits mostly inhibitors; hit rate 0.43% among 200,000; active means well fitted curve in the direction sought with a large enough effect; inconclusive means small, poorly fitted or top-dose-only effect, or another doubt; inactive means no such curve, though single readings can be large; an effect the other way counts as inactive or inconclusive;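 further: plate controls were neutral wells for no effect and buffer without enzyme for full effect; nearly all actives have a fitted effect of over 40% in size; top concentration of the series not given in the record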
Target sequence (P25779 123-467 limits assumed): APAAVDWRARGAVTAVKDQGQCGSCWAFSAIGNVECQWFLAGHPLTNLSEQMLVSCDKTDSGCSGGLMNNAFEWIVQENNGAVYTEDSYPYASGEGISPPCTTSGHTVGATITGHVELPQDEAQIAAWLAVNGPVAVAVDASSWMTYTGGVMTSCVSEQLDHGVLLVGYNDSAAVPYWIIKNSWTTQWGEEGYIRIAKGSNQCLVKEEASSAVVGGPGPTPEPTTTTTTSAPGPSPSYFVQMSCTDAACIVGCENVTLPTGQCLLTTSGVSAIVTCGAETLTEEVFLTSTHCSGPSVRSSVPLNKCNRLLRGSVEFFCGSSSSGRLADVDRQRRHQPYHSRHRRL
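Purified cruzain (1.5 nM final) was preincubated with compounds for 15 min at room temperature in 100 mM sodium acetate pH 5.5, 5 mM DTT, 0.01% Triton X-100. Reaction started with 2 uM Z-FR-AMC; AMC fluorescence change over 60 s gave activity.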
NS1 inh: blocks influenza NS1 protein function; hit rate 0.4% among 270,000; Potency, µM (doses to about 46.1 µM), without a hit: at the top dose activity, positive = more growth; S. cerevisiae slowed by influenza A NS1, growth recovery by OD600; further: actives are rising curves; nearly all actives have a fitted effect of over 50% in size
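Recovery from NS1-induced slow growth read by OD600 in budding yeast switched to galactose assay medium (pH 6.0, -URA) at 1:100 dilution. Compound 23 nl per well; the matching strain lacking NS1 serves as control.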
StopGo reporter: lowers the luciferase signal of an FMDV 2A StopGo reporter; Potency, µM (titrated, usually from 57.9 µM), without a hit: at the highest dose signal change, negative = less light; hit rate 1.2% among 410,000; AID 1159524; human cells with a luciferase reporter of 2A StopGo recoding; control for the full effect not named in the record; active = well fitted falling curve with a large enough effect; inconclusive = small, poorly fitted or top-dose-only effect; inactive = no such curve, though single readings can be large or run the other way; tested in HEK293T cells; further: on the % scale 0 is the no-effect control and ±100 the full control effect; nearly all actives have a fitted effect of over 45% in size; luciferase light after 4 h
Cruzain inh noDet: cruzain (T. cruzi) inhibition without detergent; P25779; purified cruzain, Z-FR-AMC fluorescence, no detergent; Potency, µM, for inactives: max response, negative = inhibition, usual class: inhibitors; hit rate 2.3% among 200,000; active means well fitted curve in the direction sought with a large enough effect; inconclusive means small, poorly fitted or top-dose-only effect, or another doubt; inactive means no such curve, though single readings can be large; an effect the other way counts as inactive or inconclusive;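 further: plate controls were enzyme without inhibitor for no effect and buffer without enzyme for full effect; nearly all actives have a fitted effect of over 40% in size; top concentration of the series not given in the record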
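Detergent-free condition (0.00005% Triton X-100) in acetate buffer pH 5.5 with DTT. 1.5 nM enzyme and compound were pre-mixed 15 min, then 2 uM Z-FR-AMC substrate added; reaction progress from fluorescence change between first and third reads (60 s).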
RE007 growth inh: less growth of the S. pombe RE007 Vpr strain. S. pombe RE007 Vpr strain, BacTiter-Glo ATP luminescence, 24 h; control for the full effect not named in the record. Potency, µM (doses to about 92.2 µM), for inactives: top-dose activity change, negative = less growth. hit rate 0.21% among 360,000; active = well fitted falling curve with a large enough effect; inconclusive = small, poorly fitted or top-dose-only effect; inactive = no such curve, though single readings can be large or run the other way;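 further: on the % scale 0 is the no-effect control and ±100 the full control effect; nearly all actives have a fitted effect of over 50% in size; the assay follows cell death caused by Vpr and the record does not say whether a fall means rescue or toxicity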
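Fission yeast strain RE007, carrying one chromosomally integrated HIV-1 vpr copy, was seeded at OD 0.01 in PMG+AL medium with 23 nL pinned compound. After 24 h at 30 °C and 99% humidity, viability was read by BacTiter-Glo luminescence.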
Marburg entry inh: inhibitors of Marburg virus binding or cell entry | Potency, µM (series often up to 37.8 µM), inactives show at the highest dose activity change, negative = inhibition, hits mostly inhibitors | AID 540276 | hit rate 1.8% among 300,000 | Marburg virus pseudotyped entry inhibition, cell reporter; control for the full effect not named in the record; about a third of the inactives were read at about 46 µM; active = well fitted inhibition curve with a large enough effect; inconclusive = small, poorly fitted or top-dose-only effect, or effect the other way; inactive = flat fitted curve, though single readings scatter; tested in HEK293 cells; about a fifth of its hits are not listed in these tables; further: on the % scale 0 is the no-effect control and ±100 the full control effect; luciferase read-out
* hit, by the source's call; ? = inconclusive; / = not tested or not shown; & = joins results of further samples; [ ] = another dose, or the depositor's remark. Unless noted, the call rests on the fitted dose curve; in most records, active means well fitted rising curve with a large enough effect; inconclusive means small, poorly fitted or top-dose-only effect; inactive means no such curve, though single readings can be large or run the other way. Potency means the concentration at half of the fitted maximal effect.

structure	LASV entry inh	SARS PLP yeast	Cruzain inh Det	NS1 inh	StopGo reporter	Cruzain inh noDet	RE007 growth inh	Marburg entry inh
COc1ccc(CC(=O)Nc2cccc3ccccc23)cc1OC	?	0%	/	-9%	?	/	-26%	-26%
NC(=O)C1CCN(CC(=O)Nc2cccc(C(=O)Nc3cccc(C(F)(F)F)c3)c2)CC1	-13%	-1%	1.4%	-6%	?	9%	-2%	-25%[46.1 µM]
COc1ccc(NC(=S)Nc2ccc3nccnc3c2)cc1	6%	-8%	-11%	-5%	16%	-9%	-2%	?
Cc1c(C(=O)NCc2ccc(Cl)cc2)sc2nc3n(c(=O)c12)CCCC3	-3%[46.1 µM]	/	-2.8%	/	-11%	?	/	/
Cn1nnc2cc(NC(=O)N3CC4(C)CC3CC(C)(C)C4)ccc21 (stereo unspecified)	-2%	-3%	-2.6%	6%	/	1%	-12%	0%
Oc1c(C(c2ccccc2F)N2CCC3(CC2)OCCO3)sc2nc(-c3ccco3)nn12 (stereo unspecified)	?	/	-2.2%	/	12%	13%	/	/
COc1ccc(N(CC(=O)NC2CCCC2)C(=O)c2ccc(C)s2)cc1OC	20%	0%	/	8%	0%	/	6%	-2%[46.1 µM]
O=C(O)c1ccc(N2C(=O)c3cccc4c(C(=O)O)ccc(c34)C2=O)cc1	?	1%	/	/	-14%	/	26%	15%
Cc1ccc(C)n1-c1nnc(N2CCC(C(=O)N3CCN(C)CC3)CC2)s1	/	-2%	/	-7%	-10%	/	-5%	/
Cc1cccc(C(=O)N/N=C/c2ccccn2)c1	-19%	-3%	-3.2%	-7%	-6%	7%	3%	?
Cc1ccc(N2CCN(C(=O)c3ccccc3NC(=O)C3CCCCC3C(=O)O)CC2)cc1 (stereo unspecified)	8%	5%	-2.5%	10%	0%	-1%	-5%	?
ClC1(CNc2ccccc2)CCN(Cc2ccccc2)CC1	8%[46.1 µM]	/	/	/	-11%	/	-6%	?
Cc1cccc(-n2nnnc2SCC(=O)Nc2ccc(N3CCN(C)CC3)cc2)c1	/	1%	/	0%	26%	/	-7%	/
COc1ccc(C(=O)NCc2nnc(SCC(=O)N3CCCCCC3)o2)cc1OC	/	0%	/	-2%	-7%	/	-7%	/
Cc1ccc(NC(=O)CSc2nnc([C@@H]3CCCN3C(=O)OC(C)(C)C)o2)c(C)c1	11%	3%	-0.4%	2%	-7%	17%	12%	-15%
O=C(NCc1cccs1)C1CCCN(S(=O)(=O)c2cccc3cccnc23)C1 (stereo unspecified)	/	0%	-1.1%	-2%	-4%	-12%	0%	/
COc1ccc(COc2cccc3ccc(C)nc23)cc1F	?	1%	/	-28%	-10%	/	-4%	?
Cc1ccccc1-n1cnnc1SCC(=O)N1CCN(c2ccccc2)CC1	-27%	-1%	-2.7%	-5%	-16%	10%	12%	4%
c1ccc(-c2nc(-c3cccnc3)n[nH]2)cc1	/	21%	-0.6%	0%	/	-7%	/	/
COc1ccc(S(=O)(=O)N2CCC(O)(c3ccc4c(c3)OCO4)CC2)cc1	9%	0%	0.0%	3%	/	-1%	-7%	-3%
CCOC(=O)c1cn(CC(=O)Nc2ccccc2C(=O)OCC)nn1	-13%	-4%	0.7%	-10%	22%	-8%	16%	15%
Cc1ccc(C(=O)N/C(=C/c2cccc([N+](=O)[O-])c2)C(=O)NC(C)C)cc1	1%	-5%	-0.1%	8%	-8%	-2%	-4%	19%
Cc1c(NC(=O)c2cc(-c3cccc(Cl)c3)on2)c(=O)n(-c2ccccc2)n1C	12%&11%[46.1 µM]	4%	-0.6%	1%	-8%&-23%	-1%	-1%	?
Cc1cccn2c(=O)c3cc(C(=O)NC4CCCCCC4)sc3nc12	?	1%	/	6%	13%	/	0%	?
CCCC(=O)Nc1ccc2c(c1)nc(CN1CCCCC1)n2C	-11%	-1%	-2.0%	?	-9%	-11%	-10%	2%

(more compounds)
structure	LASV entry inh	SARS PLP yeast	Cruzain inh Det	NS1 inh	StopGo reporter	Cruzain inh noDet	RE007 growth inh	Marburg entry inh
COc1ccc(CCN2C(=O)CS/C2=N\NC(=O)c2cccs2)cc1OC	/	1%	/	1%	-6%	/	-10%	/
CCOC(=O)C1CCN(C(=O)CNC(=O)c2nn(-c3ccc(OC)cc3)c(=O)c3ccccc23)CC1	/	0%	/	-6%	36%[activator]	/	8%	?
Cc1ccc(/C=C/c2onc(C)c2S(=O)(=O)N2CCC(C(=O)NCc3ccc(N(C)C)cc3)CC2)cc1	1%[46.1 µM]	/	-0.2%	/	-9%	-7%	/	/
Cc1ccccc1OCC(=O)NCC(=O)N/N=C/c1ccc(Br)o1	11%	-10%	-3.0%	4%	-9%	?	/	?
CC(=O)N1N=C(c2ccccc2O)CC1c1cccs1 (stereo unspecified)	-19%[46.1 µM]	-6%	/	-15%	5%	/	-2%	-1%[46.1 µM]
O=C(CN(Cc1ccccc1)S(=O)(=O)c1ccc2c(c1)OCCO2)Nc1ccc2c(c1)OCCO2	4%	5%	-1.2%	22%	/	20µM*	0%	-4%&1%
COc1ccccc1CNC(=O)C1CCN(S(=O)(=O)c2ccc(-n3cnnn3)cc2)CC1	9%[46.1 µM]	-1%	/	?	-7%	/	2%	14%[46.1 µM]
COc1ccc(C(=O)Nc2nc3nc(C)c(Cl)c(=O)n3[nH]2)cc1	?	/	2.1%	/	-15%	16%	/	1%[46.1 µM]
CCSc1nnc(NC(=O)C2CCCCC2C(=O)OCC(F)(F)C(F)F)s1 (stereo unspecified)	12%	3%	1.1%	8%	6%	-2%	4%	19%&19%
Cc1ccsc1C(=O)Nc1n[nH]c(C(F)(F)F)n1	26%	-1%	/	-2%	?	/	8%	10%[46.1 µM]
COc1cc(CN2CCCC(N3CCc4ccccc4C3)C2)c(Cl)cc1O (stereo unspecified)	-7%[46.1 µM]	13%	/	-4%	-14%	/	-8%	-19%[46.1 µM]
CCOC(=O)c1nc(Nc2ccccc2C)c2ccccc2n1	13%&-6%[46.1 µM]	2%	-3.5%	/	-26%&-26%	-4%	1%	?
Cn1c(NN)nc2sc3c(c2c1=O)CC(C)(C)OC3	-4%	6%	-1.0%	7%	/	-29%	-2%	-3%
CCN(CC(=O)NCc1ccc(Cl)cc1)CC(=O)NC1(C#N)CCCC1	-25%	0%	/	1%	-4%	/	-16%	3%[46.1 µM]
O=C(NC1CC1)C1CCN(S(=O)(=O)c2ccc(Cl)cc2)CC1	-15%	0%	/	6%	2%	/	-1%	2%[46.1 µM]
O=c1[nH]c2c(c(=O)[nH]1)OCN(Cc1ccccc1)C2	1%	/	/	/	-14%	/	0%	-6%
CC1Sc2ccc(S(=O)(=O)CCC(=O)N3CCCCC3)cc2NC1=O (stereo unspecified)	-12%[46.1 µM]	-9%	/	-13%	41%[activator]	/	-11%	8%[46.1 µM]
CCCCNC(=O)c1ccc2c(=O)n(Cc3ccc(OC)cc3)c(=O)[nH]c2c1	10%[46.1 µM]	/	-0.1%	/	-6%	3%	/	?
CCOC(=O)N=S(N)(=O)c1ccccc1 (stereo unspecified)	-1%	/	3.5%	6%	-7%	3%	-15%	2%
COc1cccc(CNC(=O)C2CCN(c3nnc(N4CCCC4=O)s3)CC2)c1	/	-2%	/	4%	0%	/	-5%	/
C=CC(=O)NC1CC2CCC1(C)C2(C)C (stereo unspecified)	15%	-1%	/	-2%	-2%	/	-2%	8%
CCSc1nc2ccccc2n1C(=O)c1ccc(S(=O)(=O)N2CCCCCC2)cc1	6%	-5%	-0.2%	-6%	-17%	10%	20%	?
c1csc(-c2nn3c(C4COc5ccccc5O4)nnc3s2)c1 (stereo unspecified)	?	-19%	-10%	-103%	/	?	0%	10%&10%
Cc1cccc(NC(=O)COc2coc(CN3CCN(Cc4ccccc4)CC3)cc2=O)c1	-12%	-1%	/	/	?	/	-15%	?
O=C(CSc1nncs1)Nc1cccc2ccccc12	14%	-2%	/	/	26%	/	-14%	4%

Next section:
structure	LASV entry inh	SARS PLP yeast	Cruzain inh Det	NS1 inh	StopGo reporter	Cruzain inh noDet	RE007 growth inh	Marburg entry inh
O=C(OCC1CCCO1)c1ccc2c(c1)N(Cc1ccccc1)C(=O)c1ccccc1S2(=O)=O (stereo unspecified)	6%[46.1 µM]	/	-2.6%	/	-1%	1%	/	/
COc1ccc(-n2c(=S)[nH]c3cc(C(=O)Nc4cccc(C)c4)ccc3c2=O)cc1	7%	-7%	0.9%	6%	0%	13µM*	-10%	9%
COc1cccc(-n2nnnc2SCC(=O)Nc2ccccc2OC)c1	/	0%	/	4%	-11%	/	20%	/
Cc1ccc(C)c(N2CCN(S(=O)(=O)c3cc4c(cc3C)NC(=O)CO4)CC2)c1	/	0%	/	12%	0%	/	-1%	/
CCN(C(=O)COC(=O)c1cncc(Br)c1)C1CCS(=O)(=O)C1 (stereo unspecified)	-2%[46.1 µM]	-4%	/	/	5%	/	1%	4%[46.1 µM]
O=c1ccn([C@@H]2O[C@H](COP(=O)(O)OP(=O)(O)O)[C@@H](O)[C@H]2O)c(=O)[nH]1	-3%	/	-4.5%	6%	2%	7%	/	10%&-17%&-17%&-17%
CCc1ccc2[nH]c(=O)c(CN(Cc3ccc4c(c3)OCO4)Cc3nnnn3C3CCCC3)cc2c1	8.2µM*	-3%	1.0%	?	?	-23%	7%	?
Cc1nn(CC(=O)Nc2ccncc2)c(C)c1[N+](=O)[O-]	9%	-11%	-3.9%	?	0%	2%	23%	?
O=C(Nc1ccccc1)C1CCCN1C(=O)NCc1ccccc1 (stereo unspecified)	4%	0%	/	2%	-9%	/	-9%	-10%[46.1 µM]

From PubChem BioAssay
